TRPML1 agonist: activates the human TRPML1 channel; Q9GZU1; TRPML1-expressing cells, Ca2+ dye fluorescence, FDSS; host cell line not named in the record; reference of the full effect not given here; activation, % (no concentration beside the values); 410,000 compounds, 0.12% hits; in the data active = activation above about 50%; inconclusive = about 30% to 50%; inactive = below about 30%; also: 0% is about no effect; the text of the record puts the active cut at 80%
Target sequence (Q9GZU1 whole entry, looked up): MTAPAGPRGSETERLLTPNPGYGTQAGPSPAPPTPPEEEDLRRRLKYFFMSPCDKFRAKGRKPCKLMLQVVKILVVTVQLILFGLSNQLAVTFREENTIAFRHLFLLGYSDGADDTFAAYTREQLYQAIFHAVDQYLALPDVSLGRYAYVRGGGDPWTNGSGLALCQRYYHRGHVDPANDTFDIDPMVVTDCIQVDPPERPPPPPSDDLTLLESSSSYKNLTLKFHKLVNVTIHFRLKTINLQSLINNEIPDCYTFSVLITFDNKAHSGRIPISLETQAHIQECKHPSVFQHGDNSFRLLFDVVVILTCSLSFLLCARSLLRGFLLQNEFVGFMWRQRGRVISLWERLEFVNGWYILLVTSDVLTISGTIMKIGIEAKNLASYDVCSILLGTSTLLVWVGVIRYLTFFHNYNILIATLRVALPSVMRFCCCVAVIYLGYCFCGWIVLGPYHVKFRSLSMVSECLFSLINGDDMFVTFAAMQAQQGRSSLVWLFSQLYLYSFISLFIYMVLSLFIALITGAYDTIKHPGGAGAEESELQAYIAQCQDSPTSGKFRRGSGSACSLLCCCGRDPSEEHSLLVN
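Cells: TRPML1-DL, 1X Tet inducer, ~16 h at 37 degrees C/5% CO2. Dye: ABD Ca8 no-wash + quencher, 45-90 min RT. Read: 10 s baseline, compound add, 110 s agonist phase; 54-4 EC80 (4uM final), 110 s antagonist phase.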
D2 potentiator: potentiates the human D2 dopamine receptor allosterically; 360,000 compounds, 0.23% hits; DiscoveRx D2 beta-arrestin cells, luminescence, 90 min; 100% = 57 uM dopamine signal; potentiation, % (no concentration beside the values); P14416; active = potentiation of 50% or more; inconclusive = 30% to 50%; inactive = 30% or less;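 also: compound concentration not given in the record; tested on top of an EC20 dose of dopamine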
Target sequence (P14416 whole entry, looked up): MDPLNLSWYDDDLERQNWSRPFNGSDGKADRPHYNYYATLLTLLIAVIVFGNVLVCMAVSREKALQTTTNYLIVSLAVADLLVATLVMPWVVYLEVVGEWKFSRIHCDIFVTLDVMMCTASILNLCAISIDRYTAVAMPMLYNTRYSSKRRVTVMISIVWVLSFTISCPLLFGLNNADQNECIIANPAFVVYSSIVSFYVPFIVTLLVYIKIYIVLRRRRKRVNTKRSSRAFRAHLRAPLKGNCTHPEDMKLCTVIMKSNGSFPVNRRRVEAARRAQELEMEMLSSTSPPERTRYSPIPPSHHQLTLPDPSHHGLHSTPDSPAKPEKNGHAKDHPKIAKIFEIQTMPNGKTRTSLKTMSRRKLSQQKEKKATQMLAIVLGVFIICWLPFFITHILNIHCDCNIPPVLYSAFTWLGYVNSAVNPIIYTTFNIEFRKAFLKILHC
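PathHunter D2 cells, attached overnight at 37 deg C, received compound in DMSO plus dopamine at EC20 (50 nM final) for 90 min at 37 deg C. Beta-arrestin recruitment was read as luminescence after 1 h with detection reagent at ambient temperature.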
D2 agonist: activates the human D2 dopamine receptor | 360,000 compounds, 0.084% hits | AID 624465 | DiscoveRx PathHunter D2 beta-arrestin, luminescence, 90 min; 100% = 57 uM dopamine signal | activation, % (concentration not given with the values); in the data active = activation above about 40%; inconclusive = about 15% to 40%; inactive = below about 15%; also: the text of the record calls up to 30% inactive
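Agonist mode: compounds alone added to overnight-plated D2 PathHunter cells for 90 min at 37 C, with 57 uM final dopamine (EC100) defining full response. Beta-arrestin recruitment detected by chemiluminescent reagent, read after 1 h at ambient temperature.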
Six1-Eya2 blk: inhibitors of human Six1/Eya2 interaction | Q15475+O00167 | AlphaScreen GST-Six1/His-Eya2 binding, biochemical; active compounds read low; control for the full effect not named in the record | activity change, % (no concentration beside the values) | 360,000 compounds, 0.56% hits | AID 651725; in the data active = activity change below about -65%; inconclusive = about -30% to -65%; inactive = above about -30%; also: % is scaled to controls: 0 for no effect and ±100 for the full control effect
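GST-Six1 + His-Eya2 (5X stock: 250/500 nM); Tris pH 8.0, 300 mM NaCl, 0.05% BSA, 0.02% Tween 20; GSH donor/Ni acceptor beads; 1 h 37 °C dark; AlphaScreen readout.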
CtBP-E1A inh: CtBP/E1A binding inhibition. activity change, % (concentration not given with the values). AID 651724. AlphaScreen GST-E1A/His-CtBP binding, 1536-well; active compounds read low; control for the full effect not named in the record. 340,000 compounds, 0.49% hits; in the data active means activity change below about -65%; inconclusive means about -30% to -65%; inactive means above about -30%; also: % is scaled to controls: 0 for no effect and ±100 for the full control effect
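Steps: dispense buffer (Tris pH 8.0, NaCl 300 mM, TCEP 1 mM, BSA, Tween 20); add 5X protein mix (GST-E1A, His-CtBP, 125 nM each); pin 23 nL compound; 2 h at 37 °C, dark; add 5X beads (50 ug/mL); 1 h; read.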
PINK1 modulator: changes PINK1 expression. PINK1 immunofluorescence, high-content cytometry, 24 h. Potency, µM (titrated, usually from 76.6 µM), without a hit: at the highest dose activation (PINK1 increase), hits mostly activators. 410,000 compounds, 0.2% hits; active = well fitted activation curve with a large enough effect; inconclusive = small, poorly fitted or top-dose-only effect; inactive = flat fitted curve, though single readings scatter; cell line not stated here;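 also: potency is read from the fitted curve at half-maximal effect; % of control where 0% means no effect; nearly all actives have a fitted effect of over 65% in size; a mitochondrial uncoupler was the plate control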
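Decision-based qHTS: stable cells, 24 h exposure to five compound concentrations, CCCP as control. Fixed cells stained for PINK1 plus nuclear, mitochondrial and cell markers, cytometer read.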
An asterisk follows results filed as active; ? = inconclusive; nt = not tested or not shown; [ ] = dose if it differs, or a comment.

SMILES | TRPML1 agonist | D2 potentiator | D2 agonist | Six1-Eya2 blk | CtBP-E1A inh | PINK1 modulator
CCC1=NN2C(=N)/C(=C/c3ccc(OS(=O)(=O)c4ccccc4)c(OC)c3)C(=O)N=C2S1 | 0.3 | -1 | 1.1 | -12 | -13 | -1.5%
Cc1c(Cl)cccc1NC(=O)CNC(=O)c1cn(-c2ccccc2)nc1-c1cccnc1 | 3.1 | -4 | 1.6 | -3 | -3 | 0.8%
CCCC(c1nnnn1C(C)(C)CC)N1CCN(C2CCCC2)CC1 (stereo not drawn) | 0.3 | -5 | -1.9 | 7 | -1 | -0.9%
CNc1ncnc(Sc2ccc(Cl)cc2)c1[N+](=O)[O-] | 0.4 | -5 | -2.3 | -20 | 12 | 1.2%
COc1cccc(NC(=O)COC(=O)C2CC(=O)N(c3ccc(C)cc3)C2)c1 (stereo not drawn) | -0.7 | 1 | -2.4 | 4 | nt | 0.2%
N#Cc1cccc(C#N)c1N1CCC(C#N)CC1 | -0.3 | -3 | 4.6 | 6 | nt | -0.2%
CC1(CO)CCCC1NCCNC1CCCC1(C)CO (stereo not drawn) | -0.5 | -3 | 5.2 | 5 | 11 | -0.5%
CN(CC(=O)Nc1ccc(F)c(F)c1F)C(=O)c1cc(S(=O)(=O)N(C)C)ccc1N1CCCC1 | 0.7 | 0 | -0.7 | 0 | -10 | 0.2%
CNC(=O)CN1C(=O)C2C3C=CC(C3)C2C1=O (stereo not drawn) | -0.4 | -8 | -1.6 | -1 | 0 | 0.2%
COc1ccc(NC(=O)COC(=O)c2ccc(O)cc2)c([N+](=O)[O-])c1 | 1.5 | -22 | 9.4 | -12 | 18 | 1.3%
C=CCn1c(SCC(=O)O)nnc1-c1cccc(Cl)c1 | -0.3 | -2 | -4.1 | 29 | 0 | 1.0%
Cc1cccc(C(=O)Nc2ccc(CC(=O)O)cc2)c1 | -0.6 | -3 | 2.3 | 7 | 10 | 4.1%[38.3 µM]
Cn1c(N)c(C(=O)COC(=O)CCC2CCCC2)c(=O)n(C)c1=O | 0.6 | 6 | 2.2 | 24 | 0 | 0.5%
C/C(=N\NC(=O)c1nnn(-c2nonc2N)c1CN(C)C)c1ccco1 | 0.5 | -7 | -1.5 | 0 | -6 | -0.9%
CS(=O)(=O)Nc1ccc(C(=O)CC(=O)Nc2ccc([N+](=O)[O-])cc2)cc1 | 0.0 | -5 | -3.8 | 5 | -10 | -0.6%
Cc1cc(/C=C(\C#N)C(=O)N2CCCCC2)cc(C)c1O | 1.6 | -7 | -3.2 | 4 | 0 | 6.2%
CCCCOc1ccc(NC(=O)c2cnc(C)cn2)cc1 | 3.6 | 11 | 0.6 | 4 | 5 | -1.1%
O=C(Nc1nc(-c2cccs2)cs1)C1=COCCO1 | 0.9 | -1 | -1.0 | -8 | -21 | -1.4%
C=CCc1cc(C)ccc1OCCn1ccnc1 | -0.4 | 6 | -0.7 | 0 | -3 | 0.2%
Cc1ccc(NS(=O)(=O)c2c(C)[nH]c(=O)[nH]c2=O)c(Br)c1 | 0.9 | -10 | 6.1 | -1 | nt | 1.5%
Cc1ccc(S(=O)(=O)N(C)C)cc1[N+](=O)[O-] | 0.9 | -2 | 3.1 | 3 | 0 | -1.0%
CCOc1ccc(CCNC(=O)COC(=O)c2ccco2)cc1OCC | 0.0 | -20 | -1.6 | 6 | 9 | -0.6%
COc1ccc(CNc2nc(C)c([N+](=O)[O-])c(C)c2C#N)cc1 | 2.0 | -10 | 1.6 | -7 | -7 | 10%
O=S1(=O)OCCC(c2ccccc2)N1Cc1ccccc1 (stereo not drawn) | -0.8 | 2 | 0.1 | 10 | 8 | 0.1%
CCOC(=O)N1CCN(CCC(=O)Nc2cccc(C)c2)CC1 | 0.2 | -34 | -4.8 | -4 | -16 | 0.1%
COc1ccccc1OCC(=O)Nc1ccc(CSc2ccccc2)cc1C | 5.2 | 13 | -1.0 | 5 | 3 | 9.6%
COc1ccc(Nc2nc(C)cc(C)c2C#N)cc1 | 3.5 | -26 | -4.8 | 7 | 15 | -0.1%
CCCCOC(=O)Nc1ccc(S(=O)(=O)Nc2nc(C)cc(C)n2)cc1 | -0.7 | -1 | 0.2 | 1 | 12 | 2.8%[38.3 µM]
COc1ccc(NC(=O)CCCCCn2nnc3ccccc3c2=O)cc1 | -0.5 | 5 | -1.2 | -7 | -2 | 0.6%
O=C(NC(Cc1ccccc1)C(=O)NCCc1ccccn1)c1ccccc1 (stereo not drawn) | -0.7 | -8 | -0.2 | 1 | 1 | 2.2%
Cc1nnc(SCc2ccc([N+](=O)[O-])cc2)[nH]c1=O | 0.0 | -8 | -4.3 | 13 | 5 | -0.7%
N#Cc1c(NC(=O)CSc2ncnc3sccc23)oc(-c2ccco2)c1-c1ccco1 | 1.1 | 23 | -1.2 | ? | ? | -0.3%
Cc1ccnc2nc(C(=O)OCC(=O)N(Cc3ccccc3)C(C)(C)C)nn12 | -0.3 | -11 | -4.7 | 2 | nt | 2.1%
Cc1ccccc1C(=O)NCC(=O)Nc1ccccc1C(F)(F)F | -0.7 | -2 | -2.9 | 0 | 11 | 1.3%
CC1=CC2=NC(=O)CC(C)(C(=O)N(CC(=O)NC(C)(C)C)Cc3ccccc3)N2C=C1 (stereo not drawn) | -0.3 | -2 | -0.2 | -2 | 4 | 4.0%
CC1(C)CC(=O)c2cc(C(=O)N3CCN(CCO)CC3)c(=O)n(-c3ccc(Cl)cc3)c2C1 | -0.2 | -11 | -1.0 | 0 | 6 | nt
CNC1=C(N(C(C)=O)c2ccc(Br)cc2)C(=O)c2ccccc2C1=O | 0.1 | ? | ? | 13 | 0 | -0.4%
CCN(CCNS(=O)(=O)c1ccc2[nH]c(=O)sc2c1)c1ccccc1 | 1.6 | 0 | 3.5 | -10 | -10 | 2.1%
O=C(NCc1ccco1)c1cc(-c2ccccc2)nn1CC1CC(c2cccnc2)=NO1 (stereo not drawn) | -0.8 | -1 | 1.2 | 0 | 7 | 1.1%
CC(CCC(=O)NN)C1CCC2C3CCC4CC(O)CCC4(C)C3CCC12C (stereo not drawn) | 0.8 | 7 | -1.0 | 2 | -11 | 0.7%
COc1cccc(N2CCN(C(=O)CCC(=O)N3CCOc4ccc(C)cc43)CC2)c1 | 1.0 | -5 | 0.7 | -11 | -8 | 0.6%
O=C(NNc1ccccc1)Nc1ccccc1F | -0.2 | -4 | -4.4 | -2 | -2 | 0.1%
Cc1cccc(-n2ncc3c(Nc4c(C)n(C)n(-c5ccccc5)c4=O)ncnc32)c1 | -0.4 | -10 | 3.1 | 11 | 7 | 5.5%
O=C(/C=C/[C@H]1O[C@@H](n2ccc(=O)[nH]c2=O)[C@H](O)[C@@H]1O)NCc1ccc2c(c1)OCO2 | -0.2 | -5 | -4.0 | 12 | 2 | 0.9%
COc1ccc(CN(C)C(=O)C2CSC3(C)CCC(=O)N23)cc1OC (stereo not drawn) | -0.8 | -4 | -2.3 | -11 | nt | 1.2%
Cc1c(NS(=O)(=O)c2ccc3c(c2)NC(=O)CC(=O)N3)cccc1[N+](=O)[O-] | 0.2 | -8 | 0.4 | 15 | 9 | 0.5%
CCCCN(C(=O)C(C)N1C(=O)c2ccccc2C1=O)c1c(N)n(CCCC)c(=O)[nH]c1=O (stereo not drawn) | 1.3 | -3 | -2.9 | 3 | -4 | 5.9%
Fc1cccc(Oc2nc3ccccc3n3cccc23)c1 | 0.0 | -5 | -4.0 | 10 | 25 | 10%
O=C(Nc1ccc2c(c1)OCCO2)N1CCN(c2ccc(F)cc2)CC1 | -0.3 | 2 | 1.8 | 0 | 2 | 10%[38.3 µM]
COc1ccc(-c2c(C3=CCCCC3)oc3ccc(-c4ccc5c(c4)OCO5)cc23)cn1 | -0.6 | -7 | -2.6 | -3 | 2 | -0.2%

Random excerpt: three compounds from above.
SMILES | TRPML1 agonist | D2 potentiator | D2 agonist | Six1-Eya2 blk | CtBP-E1A inh | PINK1 modulator
O=C(NNc1ccccc1)Nc1ccccc1F | -0.2 | -4 | -4.4 | -2 | -2 | 0.1%
COc1ccc(-c2c(C3=CCCCC3)oc3ccc(-c4ccc5c(c4)OCO5)cc23)cn1 | -0.6 | -7 | -2.6 | -3 | 2 | -0.2%
Cc1cccc(-n2ncc3c(Nc4c(C)n(C)n(-c5ccccc5)c4=O)ncnc32)c1 | -0.4 | -10 | 3.1 | 11 | 7 | 5.5%

Next part:
SMILES | TRPML1 agonist | D2 potentiator | D2 agonist | Six1-Eya2 blk | CtBP-E1A inh | PINK1 modulator
COC(=O)C1C(C(=O)OC)C1(c1ccccc1)c1ccccc1 (stereo not drawn) | 0.7 | -1 | -5.8 | 14 | -1 | 5.3%
CCc1nnc(NC(=O)c2nc3nccc(C)n3n2)s1 | 1.8 | 6 | -2.5 | 26 | 0 | -1.5%
CC1CCN(c2nc3c(c(=O)[nH]c(=O)n3C)n2CC(C)CSc2nnnn2-c2ccccc2)CC1 (stereo not drawn) | -0.5 | 5 | -4.9 | 0 | 5 | -1.3%
N/C(CCCN1CCCCC1)=N/O | -0.1 | -11 | -2.7 | 2 | 11 | 1.1%
CCOC(=O)Cc1csc(NC(=O)/C=C\c2ccccc2Cl)n1 | 3.8 | -5 | 1.4 | -2 | 0 | 2.6%
CCOc1ccsc1C(=O)NNC(=O)c1ccco1 | 0.0 | -10 | -8.5 | -18 | -2 | 2.9%
Cc1ccc(OCc2ccc(C(=O)NNC(=S)NCC3CCCO3)o2)c([N+](=O)[O-])c1 (stereo not drawn) | 2.5 | 0 | -6.1 | 0 | -5 | 0.9%
CCCCC[C@@H]1[C@H]2[C@H]3C(=O)N(c4ccccc4)C(=O)[C@H]3CC(=O)[C@H]2[C@H](c2ccccc2)N1S(=O)(=O)c1ccc(C)cc1 | 0.0 | 0 | 0.1 | 1 | -3 | -0.1%
C[C@@H]([C@H](O)c1ccccc1)N(C)C(=S)Nc1ccccc1 | 1.3 | -7 | 0.3 | -1 | -2 | -2.3%
O=C(NNC(=O)c1csc(-c2cccnc2)n1)c1ccccc1 | -0.5 | -3 | 0.1 | -5 | 1 | -1.9%
CC(C)C(OC(=O)c1ccco1)C(=O)NCc1ccccc1 (stereo not drawn) | 0.0 | 0 | -1.9 | -1 | 3 | 2.0%
COc1ccccc1CNC(=O)N1CCN(c2ccccc2C)CC1 | 3.7 | -8 | -1.1 | -8 | 6 | 1.5%

Compound profiles (already shown).
O=C(NNC(=O)c1csc(-c2cccnc2)n1)c1ccccc1 across the screens: TRPML1 agonist = -0.5; D2 potentiator = -3; D2 agonist = 0.1; Six1-Eya2 blk = -5; CtBP-E1A inh = 1; PINK1 modulator = -1.9%
N/C(CCCN1CCCCC1)=N/O across the screens: TRPML1 agonist = -0.1; D2 potentiator = -11; D2 agonist = -2.7; Six1-Eya2 blk = 2; CtBP-E1A inh = 11; PINK1 modulator = 1.1%
COc1ccccc1CNC(=O)N1CCN(c2ccccc2C)CC1 across the screens: TRPML1 agonist = 3.7; D2 potentiator = -8; D2 agonist = -1.1; Six1-Eya2 blk = -8; CtBP-E1A inh = 6; PINK1 modulator = 1.5%

Screening results as filed in PubChem BioAssay.
